Screening data as filed in PubChem.
hNpr1 antagonist: human Npr1 receptor antagonism | HEK293 hNpr1 GloSensor cGMP, ANP-stimulated luminescence | Potency, µM (highest dose often 46.3 µM), without a hit: at the top dose activity change, negative = inhibition, actives largely listed as inhibitors | 76,000 tested, 1.6% active | AID 1347048; active = well fitted inhibition curve with a large enough effect; inconclusive = small, poorly fitted or top-dose-only effect; inactive = no such curve, though single readings can be large or run the other way;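 note: nearly all actives have a fitted effect of over 60% in size; nearly all hits also lower the signal before the agonist is added; a reference antagonist and vehicle were the controls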
Target sequence (P16066 whole entry, looked up): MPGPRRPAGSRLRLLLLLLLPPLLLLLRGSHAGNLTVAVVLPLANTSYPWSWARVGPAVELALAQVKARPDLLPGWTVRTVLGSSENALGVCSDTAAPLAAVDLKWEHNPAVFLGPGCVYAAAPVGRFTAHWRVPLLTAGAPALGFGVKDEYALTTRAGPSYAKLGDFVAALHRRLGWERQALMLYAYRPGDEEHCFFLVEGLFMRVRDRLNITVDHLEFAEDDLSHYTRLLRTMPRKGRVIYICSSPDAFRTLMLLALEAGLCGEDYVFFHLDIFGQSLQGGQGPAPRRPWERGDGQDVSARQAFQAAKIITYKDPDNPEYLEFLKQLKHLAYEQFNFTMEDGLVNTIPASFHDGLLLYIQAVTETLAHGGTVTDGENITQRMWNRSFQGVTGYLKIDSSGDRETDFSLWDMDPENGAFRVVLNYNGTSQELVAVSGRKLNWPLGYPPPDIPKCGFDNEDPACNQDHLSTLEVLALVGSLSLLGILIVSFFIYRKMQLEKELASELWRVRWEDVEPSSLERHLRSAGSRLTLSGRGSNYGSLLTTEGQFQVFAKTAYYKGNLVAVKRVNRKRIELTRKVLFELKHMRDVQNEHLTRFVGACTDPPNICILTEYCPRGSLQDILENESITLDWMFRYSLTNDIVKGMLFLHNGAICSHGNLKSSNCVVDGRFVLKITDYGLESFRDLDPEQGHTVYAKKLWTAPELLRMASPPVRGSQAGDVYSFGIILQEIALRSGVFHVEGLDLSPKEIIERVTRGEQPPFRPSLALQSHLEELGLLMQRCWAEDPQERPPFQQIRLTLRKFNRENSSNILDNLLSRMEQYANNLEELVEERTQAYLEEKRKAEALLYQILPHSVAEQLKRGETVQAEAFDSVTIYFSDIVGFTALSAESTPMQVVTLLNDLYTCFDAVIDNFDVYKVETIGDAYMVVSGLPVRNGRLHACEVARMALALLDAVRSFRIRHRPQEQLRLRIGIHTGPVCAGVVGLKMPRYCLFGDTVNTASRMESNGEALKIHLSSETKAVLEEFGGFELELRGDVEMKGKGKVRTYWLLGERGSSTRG
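Compound pre-incubated 30 min at room temperature on GloSensor-loaded HEK293 cells stably carrying hNpr1 and the pGS-40F cGMP biosensor. Stimulation uses hNppA at 0.1 nM final; luminescence is taken at baseline and 20 min post-agonist.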
Active calls of the source: *; ? = inconclusive; [ ] = another dose, or the depositor's remark. % is set by controls: 0 for no effect and ±100 for the full control effect; potency is the fitted concentration of half-maximal effect. A portion of the library, so the mix of outcomes need not match the whole.

mol | hNpr1 antagonist
Cc1cc(C)n2nc(CC(=O)N[C@H](c3ccccn3)C3CC(O)C3)nc2n1 (some centres not stated) | 3.6%
Cc1ccc2nc(COCC(=O)N3CCC4(CCCN(C)C4=O)C3)[nH]c2c1 (configuration not stated) | 2.6%
O=S(=O)(NCC1Cn2cccc2CN1Cc1cccnc1)c1ccc(F)cc1 (configuration not stated) | 5.5%
COc1cc(OC)cc(C(=O)N2CCC3(CC2)NC(=O)N(Cc2ccccc2)C3=O)c1 | -0.8%
CN(c1ncccc1C(=O)N1CCOCC(O)C1)C1CCCCC1 (configuration not stated) | -0.4%
COc1ccccc1OCCNC(=O)C1CCN(c2cc(C(F)(F)F)nc(C)n2)CC1 | ?
CSc1ccc(CNC(=O)c2cc3c(N4CCSCC4)nc(C)cn3n2)cc1 | -6.8%
CN(Cc1cccnc1)Cc1nc(CC(N)=O)nn1-c1ccc2c(c1)CCC2 | 7.4%
O=C1COCC2(CN1Cc1cccc(OC(F)(F)F)c1)CN(c1nccs1)C2 | -1.8%[70.6 µM]
O=C(NCCc1ccccn1)c1cnc2c(c1)N(C(=O)CCc1ccccc1)CCC2 | -25.2%[70.6 µM]
Fc1cccc(OC2CCNC2)c1 (configuration not stated) | 2.7%
CCN(CC)Cc1nc(C2(O)CCN(CC(C)C)CC2)cs1 | 0.9%[70.6 µM]
O=C(c1ccccc1F)N1CCCN(C(=O)C2CC2)c2ccccc21 | 4.4%
CN(C)c1nccnc1OC1CCN(C(=O)c2ccccc2Br)C1 (configuration not stated) | -10.0%
COC(=O)c1ccc(NC(=O)N2CCC3(CC2)CC(N2CCCC2)CCO3)cc1 (configuration not stated) | 25.6%
CNC(=O)[C@@H](c1ccc(Cl)cc1)N1CCC[C@H]1C(=O)N1CCN(C)CC1 | 4.9%
Cc1cc(C)n(CC(=O)N2CCC(c3nc(-c4ccccc4)no3)C2)n1 (configuration not stated) | -2.5%
CC1(C)Cc2nc(N3CCOCC3)ncc2C(NC(=O)NC(C)(C)C)C1 (configuration not stated) | 2.6%
c1cc(Cn2cccn2)cc(-c2cn(CC3CNCCO3)nn2)c1 (configuration not stated) | -7.3%
COc1ccc(S(=O)(=O)N2C[C@@H]3C[C@H](C2)c2c(NC(=O)C4CCCCC4)ccc(=O)n2C3)cc1 | -13.5%
Cn1c(=O)n([C@H]2CCCN(C(=O)C3CC=CC3)C2)c2ncccc21 | -1.7%
CNC1CCN(C(=O)c2cnc(C34CC5CC(CC(C5)C3)C4)[nH]c2=O)CC1 | -0.2%
N#Cc1ccc(S(=O)(=O)N2CCCN(S(=O)(=O)c3ccccc3)CCC(=O)NCC2)cc1 | -1.1%
CC(C)NC(=O)CC[C@@H]1CNC(=O)[C@@H]2C[C@H](NCc3ccc(CO)o3)CN12 | -0.8%[70.6 µM]
CO[C@@H]1COCC[C@H]1NC(=O)c1cn(CCN2CCNCC2)nn1 | -0.2%
COc1cc(OC)cc(-c2onc(C)c2C(=O)NC(C)CCc2ccccc2)c1 (configuration not stated) | 5.1%
CS(=O)(=O)c1ccc(OCC2(CNC(=O)C3CCC3)C[C@@H](O)[C@@H](O)C2)cc1 (some centres not stated) | 0.8%[70.6 µM]
COC(=O)[C@]1(C)N[C@H](c2cc(F)c(OC)c(Cl)c2)[C@@H]2C(=O)N(C)C(=O)[C@@H]21 | -3.7%
O=C(Cc1ccc(N(Cc2ccc(F)cc2)C(=O)c2ccco2)cc1)NCc1ccc(F)cc1 | -27.8%
COC[C@@H]1CN(C(=O)COc2ccccc2)C[C@H]1c1ccccn1 | -15.4%
O=C1CC(c2ccccc2)N(C(=O)C2CC2)CCCN(C(=O)COc2ccccc2)CCN1 (configuration not stated) | 0.9%
CCn1ccc(C(=O)N2CCC3(CC2)CC(c2nc(C)no2)N(C)C3)n1 (configuration not stated) | -0.4%
COCCCNC(=O)[C@H]1CCC[C@H]1NC(=O)c1ccc(OC)nc1 | 7.2%
COc1ccc(NC(=O)N[C@@H]2C=C[C@@H](c3c(C)nn(-c4ccc(C(C)(C)C)cc4)c3C)C2)cc1 | -18.6%
Cn1cc2c3c(cccc31)CN(C(=O)COc1ccc(F)cc1)CC2 | -0.6%
O=C(Nc1cccc(F)c1)N1C[C@@H]2C[C@H](C1)c1ccc(-c3cccc(C(F)(F)F)c3)c(=O)n1C2 | 1.7%
COCc1ccc2c(c1)c(OC(C)(C)C(=O)NC1CCOCC1)nn2CCC(C)C | 3.5%[70.6 µM]
O=C(Cn1nc2n(c1=O)CCCCC2)N1CCc2ccccc21 | 2.4%
COCCN(CCOC)C(=O)C(C)[C@@H]1CC[C@@]2(C)CC[C@H](NC(C)=O)[C@@H](C)[C@@H]2[C@H]1O (some centres not stated) | 5.7%[70.6 µM]
O=C(NC1CCCN(c2nc3ncccc3o2)C1)c1ccc(C(F)(F)F)cc1 (configuration not stated) | 0.0%

Among those listed so far, 2 contain an NH in an aromatic ring:
mol | hNpr1 antagonist
Cc1ccc2nc(COCC(=O)N3CCC4(CCCN(C)C4=O)C3)[nH]c2c1 (configuration not stated) | 2.6%
CNC1CCN(C(=O)c2cnc(C34CC5CC(CC(C5)C3)C4)[nH]c2=O)CC1 | -0.2%

Given as labelled records: 2 of the compounds above
Structure: COCCCNC(=O)[C@H]1CCC[C@H]1NC(=O)c1ccc(OC)nc1
  hNpr1 antagonist: 7.2%
Structure: Cn1cc2c3c(cccc31)CN(C(=O)COc1ccc(F)cc1)CC2
  hNpr1 antagonist: -0.6%

Following part:
mol | hNpr1 antagonist
Cc1ccc(CN2C(=O)[C@@H]3C[C@@H](O)CN3C3(CN(C4CCCC4)C3)C2=O)o1 | 0.4%[70.6 µM]
CN1C(=O)C2(CCN(C(=O)CCC3CCCC3)CC2)c2ccccc21 | -14.2%
COc1ccc(-c2ccnc3nc(CC(C)C)nn23)cc1 | 2.3%
CNC(=O)CN(C)Cc1cc(Cl)ccc1OCC(O)CN1CCCCCC1 (configuration not stated) | 0.7%
CCc1[nH]c2c(CNC(=O)C(C)O)cc(C)cc2c1C (configuration not stated) | -8.1%
C[C@]1(CO)[C@H]2Cc3sc(NC(=O)c4cccc(F)c4)nc3[C@@H](CC(=O)N3CCOCC3)[C@]2(C)CC[C@H]1O | 3.1%
Cc1cc2nc3n(c(=O)c2n1CC(=O)Nc1cccc(C(C)C)c1)CCCCC3 | -2.9%
COc1ccc(OC)c(CNC(=O)c2c(OC)cc(=O)n3c2CCCC3)c1 | -7.8%

2 neighbouring compounds from above:
mol | hNpr1 antagonist
Cc1ccc(CN2C(=O)[C@@H]3C[C@@H](O)CN3C3(CN(C4CCCC4)C3)C2=O)o1 | 0.4%[70.6 µM]
CN1C(=O)C2(CCN(C(=O)CCC3CCCC3)CC2)c2ccccc21 | -14.2%

(listing goes on)
mol | hNpr1 antagonist
O=C(NC1CCN(c2cc(-c3ccc(F)cc3)[nH]n2)CC1)c1cccc2[nH]ccc12 | ?
COCC1CN(C(C)=O)CC12CCN(S(=O)(=O)c1cc(C)ccc1C)CC2 (configuration not stated) | -8.3%
COc1ccccc1/C=C/CN1CC[C@@H](c2ccc3c(c2)OCO3)[C@H](O)C1 | 4.8%
CC(=O)N1CC(CO)C2(CCN(Cc3ccc(F)cc3)CC2)C1 (configuration not stated) | 2.0%
O=C(Cn1nc2c(cc1=O)CCCCC2)N1CCC(c2ccccc2)CC1 | -20.8%
CC(C)NC(=O)C1COC2(CCN(C(=O)c3cccc(F)c3)CC2)N1C(=O)c1ccccc1 (configuration not stated) | 2.4%
c1cn(CC2COCCO2)c(-c2cc3n(n2)CCCNC3)n1 (configuration not stated) | -0.6%
O=C(c1cc(-c2cccs2)[nH]n1)N1CCc2c(nc3cc(-c4ccccc4)[nH]n3c2=O)C1 | -14.1%
N#CCn1nc2n(c1=O)CCN(C(=O)COc1ccc(Cl)cc1)CC2 | 0.0%
COc1ccc(NC(=O)N[C@H]2CO[C@H]3[C@@H]2OC[C@@H]3n2cc(-c3ccccc3)nn2)cc1 | -10.2%[70.6 µM]
O=C(c1ccn[nH]1)N1CCC(N2C(=O)C3(CCCC3)C2c2ccccc2)CC1 (configuration not stated) | 0.3%
Cc1cc(=O)n(CC(=O)Nc2ccc3c(c2)OCO3)c(-c2ccc(F)cc2)n1 | -17.0%
CC1(CNc2ccccc2)COc2ccc(C(=O)N3CC[S+](=O)([O-])CC3)cc2N1 (configuration not stated) | -5.4%[70.6 µM]
COc1cc(F)c(CN2CCC3(CC2)C(C(=O)O)CC(=O)N3C)cc1OC (configuration not stated) | 7.4%
O=C(NCc1cccc(C(F)(F)F)c1)c1cnc(-c2ccccc2)nc1-c1ccncc1 | -0.1%
COc1cccc(C(=O)N2CC(c3nnc(-c4ccncc4)o3)C3(CCOCC3)C2)c1 (configuration not stated) | -0.5%

The list goes on:
molecule	hNpr1 antagonist
COc1cccc([C@H]2CN(C(=O)c3c(-c4ccccc4)noc3C)C[C@@H]2N)c1	-12.1%
CCCNS(=O)(=O)c1ccc(NC(=O)NCCc2nccs2)cc1	5.0%
O=C(c1ccncc1)N1CCN(C(=O)N2CC3CC(C2)[C@H]2CCCC(=O)N2C3)CC1 (some centres not stated)	-0.5%
COc1ccc(F)c(CN2CCCC3(CCN(c4cc(C)nc(N)n4)C3)C2)c1 (configuration not stated)	-6.8%
Cc1ccc(C(=O)NC(C(=O)N2CCCCC2)C2CCN(S(=O)(=O)C(C)C)CC2)cc1 (configuration not stated)	5.8%
CSCCCN1C(=O)CC[C@H]2CN(C(=O)C3(C#N)CC3)CC[C@H]21	17.3%
OCC1CN(Cc2ccc(Cl)o2)CCC12CCN(C1CCOCC1)CC2 (configuration not stated)	-1.5%
CCN(C1CCOCC1)C1CN(C(=O)c2ccoc2)C1	-14.8%
CCOC(=O)c1cccc(NC(=O)c2c(OCC)cc(=O)n3c2CCCC3)c1	4.8%
Cc1cn2nc(-c3nc(C4CCCN(C(=O)c5ccccc5)C4)no3)cc2c(=O)[nH]1 (configuration not stated)	0.0%
CCCS(=O)(=O)N1CCC2(CC1)CN(c1ccccc1)C2=O	-2.0%
O=C(c1ccoc1)N1CCC(Oc2ccccc2-c2nc(C3CCOCC3)no2)C1 (configuration not stated)	?
Oc1ccccc1CN1CCC(O)(c2csc(CN3CC[C@@H](O)C3)n2)CC1	0.8%[70.6 µM]
c1ccc(-n2cc(CN3CCC(Oc4ccncc4)CC3)nn2)cc1	?
CCC(=O)N1CCc2c(C(=O)NCc3ccc(OC(C)C)cc3)cccc21	0.7%
Cc1ccc(NC(=O)N2C[C@H](c3nc(-c4cccnc4)no3)[C@@H](C)C2)cc1	1.7%
CC(C)NC(=O)N(C1CC1)C1CCOC2(CCN(C(=O)CCCc3ccccc3)CC2)C1 (configuration not stated)	-16.8%
Cc1nn2c(c1-c1ccccc1C(C)C)N(C(=O)Cc1ccc3c(c1)OCO3)CCC2	0.5%[70.6 µM]
CNCC(=O)N1CCC(Cc2cccc(C(N)=O)c2)C1 (configuration not stated)	3.8%
O=C(Cc1cccc(F)c1)NC1CCN(c2cc(-c3cccs3)[nH]n2)C1 (configuration not stated)	-14.7%
COc1cccc(NC(=O)N2[C@@H]3CC[C@H]2CC(NC(=O)c2cnc(C)cn2)C3)c1 (some centres not stated)	-0.3%
O=C(Nc1ccccc1CCc1ccccn1)C1CCN(c2cnn(Cc3ccccc3)c(=O)c2)C1 (configuration not stated)	-17.0%
O=C(Nc1ccc(F)cc1)N1CC[C@H]2COC(=O)N2c2cc(F)ccc2C1	3.8%[70.6 µM]
CC(C)[C@@H](N)C(=O)N1CCC2(CC1)Nc1ccccc1NC2=O	1.7%
O=C(c1ccccc1F)N1CCCC(c2nn(-c3ccccc3)c(=O)[nH]2)C1 (configuration not stated)	38.5%[activator]
CSc1cccc(NC(=O)C2CCN(c3cnc4nccnc4c3)CC2)c1	-2.4%
COc1ccc(CN[C@H]2C[C@@H](Cc3cc(CN(C)c4ccccc4)on3)C2(C)C)cc1	-30.0%[70.6 µM]
O=C(O)C1(CC2CC2)CCCN(Cc2ncccn2)C1 (configuration not stated)	2.6%
COc1cccc(CCC(=O)N2CCCC(CN3CCCC3)CC2)c1 (configuration not stated)	-0.3%
CN(C)c1ccc(C(=O)NCC2CCN(c3cc(-c4ccc(Cl)cc4)[nH]n3)CC2)cc1	?
COc1ccc(CN2C[C@H]3CN(Cc4cccc(OC)n4)CCN3C2=O)cc1	-7.4%[70.6 µM]
Cc1[nH]ncc1CNC(=O)CCC[C@@H]1[C@H]2CCCN3CCC[C@@H](CN1Cc1cccnc1)[C@@H]23	1.4%
FC(F)(F)c1ccc(O[C@H]2COCCN(Cc3cccnc3)C2)nc1	-8.0%[70.6 µM]
O=C(NCc1ccccc1)C1COC2(CCN(C(=O)c3cccs3)CC2)N1C(=O)c1ccccc1 (configuration not stated)	-2.7%
CC(=O)N1CCC(N2CCC(N3C(=O)C4(CCCCC4)C3c3ccncc3)CC2)CC1 (configuration not stated)	1.0%
O=C1CCN(C(=O)[C@@H]2CCCN2Cc2ccc(C(F)(F)F)cc2)CCCCCCN1	5.9%
COc1cccc(C(=O)N2CCC(c3nn(-c4ccc(Cl)cc4)c(=O)[nH]3)CC2)c1	1.0%
COc1ccccc1C(=O)N1CCCCC1c1noc(COc2ccc(C)cc2)n1 (configuration not stated)	-3.6%
CCn1c(C2CCCN(Cc3c(C(=O)O)[nH]c4ccc(C)cc34)C2)n[nH]c1=O (configuration not stated)	5.1%
CC(C)(C)NC(=O)N1CCCC1c1nc(CCOCC2CCCC2)no1 (configuration not stated)	-3.3%
